Sa growth inh: inhibitors of Staphylococcus aureus growth at 42 °C; AID 720641; relative growth, % (no concentration beside the values); 0.53% of 170,000 active; S. aureus RN4220 growth, OD600, 20 h; hits give low values;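 active means growth at 42 °C up to 50% and 20 or more points under that at 30 °C, or under 10% at both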;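 further: 300 nL library stock went into each well; scaled to the means of positive and negative controls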
HCMV NEC inh: cytomegalovirus nuclear egress complex inhibition; HTRF UL50-UL53 interaction, normalized percent inhibition; inhibition, % (no concentration beside the values); 0.15% of 190,000 active;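 active means both replicates at 50% or more, plus weaker picks with an unusually low signal ratio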;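 further: stock transfer was 100 nL into about 20 µL; 0% = negative control wells and 100% = wells with untagged competitor protein; inactives centre near -12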
GIV-Gai inh: inhibitors of GIV GBA-motif binding to rat Galpha-i3 | Galpha-i3/FITC-GIV peptide fluorescence polarization, 90 min; hits give low values; scaled: aluminum fluoride 0%, vehicle 100% | P08753 | 0.42% of 210,000 active | percent of control (FP), % (no concentration beside the values) | AID 1224905;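 active means replicate mean at 85% of control or lower, very high polarization wells dropped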;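 further: wells of about 15 µL received 100 nL stock; the first replicate is given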
Target sequence (P08753 whole entry, looked up): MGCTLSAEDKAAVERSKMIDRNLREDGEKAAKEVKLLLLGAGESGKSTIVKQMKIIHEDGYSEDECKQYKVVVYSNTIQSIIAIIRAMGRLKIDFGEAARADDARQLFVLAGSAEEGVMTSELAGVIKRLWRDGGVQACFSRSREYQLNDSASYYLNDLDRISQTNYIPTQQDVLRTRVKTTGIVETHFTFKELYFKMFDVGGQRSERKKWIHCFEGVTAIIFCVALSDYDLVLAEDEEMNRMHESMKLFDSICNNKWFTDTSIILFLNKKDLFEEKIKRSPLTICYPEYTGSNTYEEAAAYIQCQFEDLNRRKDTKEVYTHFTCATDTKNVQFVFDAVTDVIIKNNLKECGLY
Sa growth inh second temp: second read-out of Sa growth inh, no call of its own (marks repeat the call); relative growth, %; measured here: growth at 30 °C;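 optical density after 20 h as mean of two plates; 100% = untreated growth and lower means inhibition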
Starred values were filed as active, the others as inactive; · = no result given; & = joins results of further samples.

SMILES	Sa growth inh	Sa growth inh second temp	HCMV NEC inh	GIV-Gai inh
Cc1oc2ncnc(N3CCCCC3)c2c1C(=O)NCC1CCN(Cc2cccc(F)c2)CC1	110	99	·	110
Clc1ccc(-c2cn3c4ccccc4nc3n2CCCNC2CCCCC2)cc1	95	39	·	107
Cc1ccc(S(=O)(=O)CC(O)CN2CCCC2=O)cc1 (stereo unspecified)	100	92	-12	102
CCOC(=O)c1cc(C(O)(C(F)(F)F)C(F)(F)F)c(N)o1	77	86	-18	·
CCOc1ccccc1NC(=O)COC(=O)Cc1ccc(OC)cc1	94	92	-18	·
Cc1cc(C)c2c(n1)SCCN2C(=O)NCCC(=O)NCCN(C)C	·	·	-11	109
COc1ccc(-c2noc(CCCC(=O)Nc3cccc(Cl)c3C)n2)cc1	111	76	-6	101
C=CCn1c(CNC(=O)c2ccco2)nnc1SCC(=O)Nc1cccc(Br)c1	99	96	20	106
COc1ccc(NC(=O)c2c(NCc3ccc(C)o3)sc3c2CCCC3)cc1	80	74	-27	101
O=C1Nc2ccccc2Oc2cc(Sc3ccccc3)ccc21	82	76	-28	·
CCn1c(=O)n(CC)c2cc(N3CCCC3)c(NC(=O)CC(=O)OC)cc21	88	92	6	96
COc1cccc(C2C3=C(CCCC3=O)N(C)C3=C2C(=O)CCC3)c1	113	72	-28	104
CC1(C)CC(C(CC#N)c2ccccc2)CCO1 (stereo unspecified)	87	76	-20	98
Nc1ccccc1-c1nnc(-c2ccc(-c3ccccc3)cc2)o1	91	101	31	·
O=c1c2c(nc3nc(Cc4ccc(Cl)cc4)[nH]n13)CCC2	·	·	21	94
Cc1csc2ncc(C(=O)NC3CC3)c(=O)n12	·	·	-22	101
CCN(CC)C(=O)c1ccc(COc2cccc3ccccc23)o1	58	49	·	103
COc1ccc(-c2cc(-c3cccs3)n(-c3nc(C)cc(=O)[nH]3)n2)cc1	89	69	-5	110
CC(C#N)Sc1nnc(-c2ccco2)n1Cc1ccccc1 (stereo unspecified)	92	94	-9	·
CC(C)(C)Nc1nc2nonc2nc1NC(C)(C)C	44	21	·	100
Cc1nc2nc(CCc3ccccc3)nn2c(C)c1Cl	96	90	2	107
COc1cccc(C2CC(=O)Nc3cc4c(cc32)OCO4)c1OC(C)C (stereo unspecified)	128	104	6	102
COc1cc(OC)cc(C2SC(N)=C(C#N)C(N)=C2C#N)c1 (stereo unspecified)	69	65	-10	·
Cc1oc2ccc(O)c(CN3CCN(Cc4ccccc4)CC3)c2c1C(=O)Nc1ccc(C(C)C)cc1	81	87	-17	101
O=C(Nc1ccc(-c2nc3ccccc3o2)cc1)C1CCCC1	106	82	-22	100

Next part, starting with the last 4 of the part before.
SMILES	Sa growth inh	Sa growth inh second temp	HCMV NEC inh	GIV-Gai inh
COc1cccc(C2CC(=O)Nc3cc4c(cc32)OCO4)c1OC(C)C (stereo unspecified)	128	104	6	102
COc1cc(OC)cc(C2SC(N)=C(C#N)C(N)=C2C#N)c1 (stereo unspecified)	69	65	-10	·
Cc1oc2ccc(O)c(CN3CCN(Cc4ccccc4)CC3)c2c1C(=O)Nc1ccc(C(C)C)cc1	81	87	-17	101
O=C(Nc1ccc(-c2nc3ccccc3o2)cc1)C1CCCC1	106	82	-22	100
CCCCNC(=O)c1cccc(-n2c(C)nc3cccnc32)c1	112	87	·	109
O=C1CN(C(=O)COC(=O)c2ccccc2)c2ccccc2N1	91	86	-18	·
COc1ccccc1C(=O)Nc1ccccc1Sc1cc(C)nc2ncnn12	·	·	-17	101
CCCNC(=O)CN1C(=O)COc2ccc(S(=O)(=O)N3CCC(C)CC3)cc21	92	94	10	103
Nc1ccc(-c2nc3ccccc3[nH]2)cc1	128	62	3	·
CCc1ccc2oc(C(=O)Nc3ccccc3OC)c(C)c2c1	98	108	5	104
Cc1cccc(N2CCN(C(=O)c3cnn(-c4ccccc4Cl)c3C3CCN(C(=O)OC(C)(C)C)CC3)CC2C)c1 (stereo unspecified)	86	88	·	101
COc1ccc(OC)c(NC(=O)N2CCN(c3ccc(=O)n(-c4ccccc4)n3)CC2)c1	·	·	-35	102
CC(C)C(NC(=O)C1CCCCC1)C(=O)Nc1ccc(F)c(Cl)c1 (stereo unspecified)	84	81	-22	95
CCc1nnc(NC(=O)CSc2nc3c(c(=O)n2Cc2ccccc2)SC(C)C3)s1 (stereo unspecified)	84	87	-30	101
Cc1cc(C)cc(Oc2c(C(F)(F)F)oc3c(CN4CC(C)OC(C)C4)c(O)ccc3c2=O)c1 (stereo unspecified)	97	101	·	103
Cc1cc(NC(=O)CSc2nnc(Cn3c(=O)sc4ccccc43)n2-c2ccccc2)no1	110	102	-6	104
c1ccc(-c2noc(CC3CCCCC3)n2)cc1	112	96	8	107
O=C(COC(=O)C1(c2ccc(F)cc2)CCCC1)NC1CC1	89	95	2	·
O=C(NCc1cccs1)c1cc2c(=O)[nH]c3ccccc3c2s1	79	84	·	98
O=C1C=CC(=O)N1c1ccc2scnc2c1	57	38	-7	110
O=C(Nc1ccc(F)cc1)c1nnc(CSCC(=O)N2CCN(c3ccccn3)CC2)s1	·	·	9	102
COC(=O)c1ccc(CSc2nnc(C3CC3)n2Cc2ccccc2)o1	75	77	-21	·
CCCOc1ccc(C2Nc3ccccc3NC3=C2C(=O)CC(c2ccc(OC)c(OC)c2)C3)cc1 (stereo unspecified)	·	·	8	108
OCC#CCSc1nc2ccccc2o1	90	98	4	104
CC(C)CC1N=C2c3ccccc3N=C(SC(C)C(=O)Nc3ccc4c(c3)OCCO4)N2C1=O (stereo unspecified)	·	·	0	110
CCOC(=O)C1=C(c2ccccc2)NC(SCC(=O)Nc2ccccc2)=C(C#N)C1c1ccco1 (stereo unspecified)	99	89	·	101
CCSc1nc2ccc(NC(=O)c3ccccc3C(=O)O)cc2s1	73	79	1	·
CCOC(=O)c1sc2nc(C)nc(NCc3ccccc3OC)c2c1C	·	·	-16	99
Cc1cc(=O)n2[nH]c(CN(C(=O)c3ccc(C(C)(C)C)cc3)c3ccc(Cl)cc3)nc2n1	·	·	3	105

Fetched by compound from above, two records:
SMILES	Sa growth inh	Sa growth inh second temp	HCMV NEC inh	GIV-Gai inh
O=C1C=CC(=O)N1c1ccc2scnc2c1	57	38	-7	110
Cc1cc(C)cc(Oc2c(C(F)(F)F)oc3c(CN4CC(C)OC(C)C4)c(O)ccc3c2=O)c1 (stereo unspecified)	97	101	·	103

As a working copy, part of the list above:
SMILES	Sa growth inh	Sa growth inh second temp	HCMV NEC inh	GIV-Gai inh
Cc1oc2ncnc(N3CCCCC3)c2c1C(=O)NCC1CCN(Cc2cccc(F)c2)CC1	110	99	·	110
Clc1ccc(-c2cn3c4ccccc4nc3n2CCCNC2CCCCC2)cc1	95	39	·	107

The results go on:
SMILES	Sa growth inh	Sa growth inh second temp	HCMV NEC inh	GIV-Gai inh
O=C1c2ccccc2CN1C(CO)c1ccccc1 (stereo unspecified)	·	·	5	106
CCC(C)NC(=O)CCN1C(=O)c2ccccc2C1=O (stereo unspecified)	96	103	-25	112
COc1ccc(-n2c(SCC(=O)Nc3ccc(Cl)c(C)c3)nc3n[nH]c(C)c3c2=N)cc1	116	91	·	101
CCN(CC)C(=O)Cn1cc(/C=C2\C(=O)NC(=O)N(CC)C2=O)c2ccccc21	90	83	-47	100
CCOc1ccccc1NC(=O)Cn1c(=O)n(Cc2ccccc2)c(=O)c2c3c(sc21)CN(C(C)=O)CC3	103	84	-24	96
CCc1ccc(NC(=O)c2cccc3c2C(=O)N(CC)C3)cc1	83	83	·	98
Cc1ccc(C(=O)CSc2nnc3ccc4ccccc4n23)cc1	102	77	-28	101
CCCOc1ccc(-c2cccc(NS(=O)(=O)c3cc(OC)ccc3OC)c2)nn1	97	87	·	106
Cc1cccc(C)c1NC(=S)SCC(N)=O	104	83	-15	94
COc1ccc(OCC(=O)NCCO)cc1	85	102	20	101
Cn1nc(Nc2ccccc2N)cc1-c1ccccc1	61	59	-3	·
CC(C)COC(=O)c1cn(C2CCCCC2)c2ccccc2c1=O	73	71	-29	105
OC(c1ccccc1)c1nc2ccccc2n1Cc1ccccc1 (stereo unspecified)	99	92	·	98
O=C(CN1CCN(c2ccc(C(F)(F)F)cn2)CC1)N1CCCC1c1ccc2c(c1)OCCCO2 (stereo unspecified)	83	82	-18	·
COC(=O)c1ccc(/C=C2\SC(=Nc3cc(C)cc(C)c3)NC2=O)cc1	·	·	-19	111
CCOc1ccc2c(c1)C(C)CC(C)(C)N2 (stereo unspecified)	77	73	-5	109
C/C(=N\N=C1/NC(=O)CC(C(N)=O)S1)c1cccs1 (stereo unspecified)	92	85	-46	99
O=C(CN(c1ccc2c(c1)OCCO2)S(=O)(=O)c1ccccc1)NCc1ccco1	115	86	-19	103
Cc1cccc(C(=O)OCC(=O)Nc2oc(C)c3c(C)n[nH]c(=O)c23)c1O	84	80	-42	·
Cc1cc(NC(=O)C2CCC2)n(-c2ccccn2)n1	102	84	-14	·
Cc1ccc(CNc2ccc3c(c2)CCC3)o1	84	90	-6	129
CNC(=O)c1cc(Cl)ccn1	93	99	2	·
Cc1cccc(-c2nc(SCC(=O)NCC3CCCO3)c3c(=O)n(C)c(=O)n(C)c3n2)c1 (stereo unspecified)	113	105	·	105&108
NC(=O)CSc1nc2c(oc3ccccc32)c(=O)n1Cc1ccccc1	94	79	-34	100
NC1=NC(=O)C(CC(=O)Nc2cccc3ccccc23)S1 (stereo unspecified)	87	97	-12	106

Continued.
SMILES	Sa growth inh	Sa growth inh second temp	HCMV NEC inh	GIV-Gai inh
CS(=O)(=O)OCCCCOS(C)(=O)=O	97	95	0&15&-60	·
CN(C)C(=S)c1nc2ccccc2s1	91	79	-63	102
COc1cccc(C2c3c(-c4ccccc4O)n[nH]c3C(=O)N2CCc2ccccc2)c1 (stereo unspecified)	87	65	-10	102
S=c1[nH]nc(-c2ccc[nH]2)o1	64	99	-22	·
CCOc1ccccc1C(=O)NC1(C(F)(F)F)C(=O)Nc2c1c(=O)[nH]c(=O)n2-c1ccccc1 (stereo unspecified)	110	91	-46	105
CCOC(=O)c1cc(-c2ccccc2)n(CCC(=O)NCCc2ccc(C)cc2)c1C	100	92	·	99
CC(C)Cn1c(N)cc(=O)n(C)c1=O	92	91	-35	·
COC(=O)c1cn(CC(=O)Nc2ccc(F)cc2)c2ccccc12	88	84	-11	101
CCOc1cc(C=C2C(=O)N(C)C(=O)N(C)C2=O)ccc1OCCOCCOc1ccc(C)cc1	·	·	10	105
O=C(COc1ccccc1Cl)Nc1nc(-c2ccc(F)cc2)ns1	100	78	-9	97
COc1cc(Nc2nc(SCC(=O)c3ccc(Br)cc3)nc3ccccc23)cc(OC)c1	116	78	·	103
CCOC(=O)c1cc(CC)sc1NC(=O)C=C(C)C	98	93	1	111
Cc1ccccc1S(=O)(=O)CC(SC#N)c1ccccc1 (stereo unspecified)	111	82	-3	97
C[C@@H](C(=O)N=c1sc2ccccc2n1C)N1C(=O)C2CC=CCC2C1=O (stereo partly specified)	93	98	-6	·
COc1ccc2[nH]c3c(c2c1)CCN(C(=O)CCc1ccccc1)C3c1ccc(F)cc1 (stereo unspecified)	·	·	-36	104
CCc1c(C)nc2ccc(OC)cc2c1Cl	91	89	-10	·
COc1cccc(CNC(=O)Cc2c(C)c3ccc(OC)c(C)c3oc2=O)c1	97	74	-24	96
CCOc1ccc(C(=O)N2CCC(c3noc(-c4ccc(S(=O)(=O)N5CCCC5)cc4)n3)CC2)cc1	104	92	-3	104
Cn1c(=O)n(-c2ccc(F)cc2)c2nc(-c3cccc(Br)c3)nc(C(N)=O)c21	·	·	-11	103
O=C(Nc1ccc(OCc2cc(=O)n3c4c(sc3n2)CCCC4)cc1)c1cccc(F)c1	113	93	-21	106
O=C(O)CCCNC1C=CS(=O)(=O)C1 (stereo unspecified)	115	99	-9	103
O=C(O)c1ccc(N/N=C/C2=C(N3CCOCC3)C(=C\c3ccccc3)/CC2)cc1	96	89	-26	·
O=C(Nc1ccc2c(c1)OCO2)c1cnn2c(C(F)(F)F)cc(-c3ccco3)nc12	99	103	-5	106
Cc1ccc(Cn2nnc(C(=O)O)c2C(=O)O)cc1	·	·	-15	105
N#CC(C(=O)c1ccc(F)cc1)c1nc2ccccc2[nH]1 (stereo unspecified)	97	75	-1	105

Additional entries follow.
SMILES	Sa growth inh	Sa growth inh second temp	HCMV NEC inh	GIV-Gai inh
COc1ccc(CC(=O)NC2=NC(=O)C(C)S2)cc1 (stereo unspecified)	96	90	-12	·
O=C(CCC(=O)N1CC2CCCN2c2ccccc21)NCc1ccccc1Cl (stereo unspecified)	119	91	·	99
Cc1cccc(N2C(=O)c3cccc4cccc(c34)C2=O)n1	90	87	-66&-36	94
CCOC(=O)N1CCN(c2nnc(Cc3cccnc3)c3ccccc23)CC1	103	95	3	106
COCCn1c(C)cc(C(=O)CSC2=Nc3ccccc3CS2)c1C	83	91	-21	·
Nn1c(-c2cccs2)nc2sc3c(c2c1=O)CCCC3	111	92	-37	·
CC1CCCN(c2ccc(C(=O)NCCc3ccccc3)cn2)C1 (stereo unspecified)	88	90	-48	103

Limited to HCMV NEC inh and GIV-Gai inh (5 entries from above):
SMILES,HCMV NEC inh,GIV-Gai inh
CCOC(=O)N1CCN(c2nnc(Cc3cccnc3)c3ccccc23)CC1,3,106
CC1CCCN(c2ccc(C(=O)NCCc3ccccc3)cn2)C1 (stereo unspecified),-48,103
COc1ccc(CC(=O)NC2=NC(=O)C(C)S2)cc1 (stereo unspecified),-12,·
Cc1cccc(N2C(=O)c3cccc4cccc(c34)C2=O)n1,-66&-36,94
COCCn1c(C)cc(C(=O)CSC2=Nc3ccccc3CS2)c1C,-21,·
